# Compound activity as filed in PubChem BioAssay.
# Yeast UUG start: modulators of yeast start codon fidelity, primary screen, whole organism, S. cerevisiae, single point, plate reader | activity score, % at 18.7 µM | 350,000 compounds, 0.13% hits | S. cerevisiae UUG-firefly luciferase reporter, luminescence/redox ratio;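 active = replicate mean at a twofold rise or more, about +100% in these data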;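 note: firefly luciferase made from a UUG start codon reports start codon fidelity; reporter light over untreated wells divided by growth signal over untreated wells; some hits fall short of that in this replicate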
# MT1-MMP act inh: blockers of MT1-MMP proenzyme processing, primary screen, HT1080 RFP-PRO-GFP cells, GFP/RFP fluorescence; GFP/RFP ratio fluorescence, overnight; percent of plate control window, DMSO zero; Matrix metalloproteinase-14 (Homo sapiens), P50281; AID 651647, 2012; 360,000 compounds, 0.061% hits; GFP/RFP ratio change, % at 20 µM;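 active = GFP/RFP ratio change of at least 30% with cell ATP level not reduced by more than half and red fluorescence within 50% of control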; note: strong numbers were not always called active
#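 Test system: HT1080 cells expressing an RFP-PRO-GFP fluorescent reporter construct / Compound dosing: single-point 20 µM compound, 1% DMSO / Schedule: cells overnight before dosing, compound overnight, 37 °C, 5% CO2 / Evaluation: GFP/RFP fluorescence ratio / Control set: DMSO and RFP-L50D-GFP cell wells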
# CSC inhib: cancer stem cell viability inhibitors, primary screen, luminescence; 300,000 compounds, 1.1% hits; inhibition, % at 7.5 µM; cancer stem cell-like cells viability;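 active = mean at 75% or more and at least half the replicates too; inconclusive = mean and replicates disagree; tested in HMLE shEcad cells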;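 note: 0% = median of negative and 100% = median of positive control wells; the first replicate is given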
# PABP FP inh: PABP poly(A) RNA binding inhibitors, primary screen, biochemical, fluorescence polarization, uHTS; 290,000 compounds, 1% hits; Polyadenylate-binding protein 1 (Homo sapiens), P11940; AID 2014, 2009; inhibition, % at 35 µM;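 active = 50% or more with normal probe brightness, or confirmed in later tests; inconclusive = above 50% with abnormal brightness, or retests that disagree; inactive = below 50% or failed in later tests; about a fifth of its hits are not listed in these tables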;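 note: calls also rest on retests at 20 µM and on dose response follow-up; controls were probe without protein and protein plus probe with vehicle; some compounds called inactive have numbers as strong as hits; many hits fall short of the cut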
# Rce1 inh: yeast Rce1p protease inhibitors, primary screen, biochemical, fluorescence, cell-free homogeneous; CAAX prenyl protease 2 (Saccharomyces cerevisiae (strain ATCC 204508 / S288c)), Q03530; calls only; AID 2563, 2010; yeast membranes, quenched prenylated peptide cleavage fluorescence; 290,000 compounds, 0.27% hits;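 active = fall in fluorescence gain of 50% or more versus controls, with final raw signal at or below 3038400; inconclusive = same 50% fall but final raw signal above 3038400; inactive = fall in fluorescence gain under 50%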;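 note: plate controls were neutral control wells for no effect and wells lacking membranes for full effect; tested at 10 µM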
# Target sequence (Q03530 whole entry, looked up): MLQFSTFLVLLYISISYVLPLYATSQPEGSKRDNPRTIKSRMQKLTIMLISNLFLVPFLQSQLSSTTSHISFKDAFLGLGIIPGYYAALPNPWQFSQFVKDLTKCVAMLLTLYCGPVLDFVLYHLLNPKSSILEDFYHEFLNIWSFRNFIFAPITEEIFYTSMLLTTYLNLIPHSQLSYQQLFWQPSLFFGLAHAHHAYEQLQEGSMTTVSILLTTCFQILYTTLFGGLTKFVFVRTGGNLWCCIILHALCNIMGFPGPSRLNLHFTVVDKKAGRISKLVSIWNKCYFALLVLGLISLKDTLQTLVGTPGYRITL
# HIV Env fusion: inhibitors of HIV-1 Env-driven cell-cell fusion, primary screen, HeLa-JRFL effector, CEM21 target cells, luciferase. 360,000 compounds, 1.1% hits. AID 651610, 2012. inhibition, % at 12.3 µM;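 active = mean replicate inhibition score of at least 50 and every replicate individually at or above 50; inconclusive = only one of the two criteria met; inactive = mean below 50 and not all replicates reaching 50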;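 note: 0% = plate neutral controls and 100% = maraviroc near 300 nM; one replicate is shown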
# eIF4H inh: human eIF4H binding inhibitors, primary screen, translation initiation inhibitor project, biochemical, uHTS, fluorescence polarization. 290,000 compounds, 0.94% hits. eIF4H fluorescence polarization binding assay. inhibition, % at 35 µM;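 active = 50% or more with normal probe brightness, or confirmed in later tests; inconclusive = above 50% with abnormal brightness, or retests that disagree; inactive = below 50% or failed in later tests; about a fifth of its hits are not listed in these tables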;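 note: calls also rest on retests at 20 µM and on dose response follow-up; 0% = protein and probe with vehicle and 100% = probe without protein; strong numbers were not always called active; many hits fall short of the cut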
# eIF4H inh retest: second read-out of eIF4H inh, no call of its own (marks repeat the call); inhibition, %; compound at 20 µM; confirmation average;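 mean of two retest wells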
# PABP FP inh retest: also measured in PABP FP inh; calls as there; inhibition, %; compound at 20 µM; confirmation repeats;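 mean of two retest wells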
# MT1-MMP act inh RFP: also measured in MT1-MMP act inh; calls as there; RFP signal change, %; measured here: RFP expression control read;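 0 = vehicle wells; hits needed this value within 50% of zero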
# Numbers without * were called inactive; i = inactive; ? = inconclusive; · = no result given.
SMILES,Yeast UUG start,MT1-MMP act inh,MT1-MMP act inh RFP,CSC inhib,PABP FP inh,Rce1 inh,HIV Env fusion,eIF4H inh,others
CCCOc1ccc(/C=N/NC(=O)C2CCCN2S(=O)(=O)c2ccc(Cl)cc2)cc1 (centres undefined),3,1,-1,-7,55,i,·,5,eIF4H inh retest=0;PABP FP inh retest=-1
CCOCC(=O)Nc1ccc(C(=O)Nc2ccccc2Cl)cc1,·,·,·,1,-5,i,-9,-5,
CNC(=O)COc1coc(CN2CCN(c3ccc(OC)cc3)CC2)cc1=O,-10,3,7,-10,3,i,-6,10,
CCOC(=O)c1c(C)n(C)c2ccc(OC)c([N+](=O)[O-])c12,·,4,-3,-2,1,i,12,-1,
O=C(NCCN1CCOCC1)C1(C(F)(F)F)C/C(=C\Cc2ccccc2)CCCO1 (centres undefined),-7,-2,6,-3,·,i,11,·,
Cc1ccc(CCNC(=O)CCCn2nc(C)c3c(C)n(-c4ccc(C)cc4)nc3c2=O)cc1,-8,3,3,-11,6,i,5,-13,
COc1ccc(C)cc1NC(=O)Nc1ccncc1,-13,3,3,-13,-6,i,4,-2,
O=C(C1Cc2ccccc2CN1C(=O)c1ccco1)N1CCN(c2ccccc2)CC1 (centres undefined),-7,-1,2,·,·,·,0,·,
O=C(COC(=O)c1cccc([N+](=O)[O-])c1)NC1CCCC1,-12,2,2,-10,-6,i,-13,-4,
CC(=O)Nc1ccc(NC(=O)CC23CC4CC(CC(C4)C2)C3)cc1,·,0,0,-3,-11,i,-1,0,
CCOC(=O)c1sc(NC(=O)CC)nc1C,·,-3,-2,-8,-4,i,-18,0,
COc1ccccc1/C=N/NC(=O)COCC(=O)N/N=C/c1ccccc1OC,-12,-1,-3,-23,4,i,20,10,
O=C1c2cccc([N+](=O)[O-])c2C(=O)N1c1cccnc1,·,0,5,-3,3,i,6,1,
CC1(C)N=C(N)N=C(N)N1c1ccc(C(=O)O)cc1,·,·,·,-2,9,i,·,-16,
COc1ccc(S(=O)(=O)N2CCN(C(=O)NC3CCCCC3)CC2)cc1,·,12,7,-1,-5,i,6,-6,
O=C(NCC1(O)CCCCC1)C1CCC(=O)N(Cc2cccc(C(F)(F)F)c2)C1 (centres undefined),-11,2,3,-13,1,i,-6,9,
O=S(=O)(c1ccc(F)cc1)N1CCCN(Cc2c(F)cccc2F)CC1,-7,1,0,-10,0,i,-6,1,
CCOC(=O)c1c(C)[nH]c(C)c1S(=O)(=O)N1c2ccccc2CC1C (centres undefined),6,7,-2,13,4,i,-2,-11,
CCCCNc1c(-c2ccc(OC)c(SC(C)CC)c2)nc2cnccn12 (centres undefined),-21,-13,-4,·,·,·,-4,·,
CC(C)c1cn(C2OC(COC(=O)c3ccccc3)C(OC(=O)c3ccccc3)C2OC(=O)c2ccccc2)c(=O)[nH]c1=O (centres undefined),-15,-28,-23,-2,·,i,17,·,
O=C(NCCN1C(=O)S/C(=C\c2cccc(Cl)c2Cl)C1=O)C1=COCCO1,-15,2,-3,11,8,i,-9,-6,
COc1ccc(N2CCN(CC(O)COC(C)(C)C)CC2)cc1 (centres undefined),·,-4,4,-6,3,i,16,-9,
FC(F)(F)c1nnc2ccc(-n3ccnc3)nn12,-3,1,2,-19,5,i,-36,1,
Cc1cncc(NCc2ccc3c(c2)OCO3)n1,-11,0,0,·,·,·,-5,·,
CCCC(CCC)C(=O)NCCN1CCOCC1,-21,1,0,1,12,i,·,-11,

# The last seven compounds of the part above open the next one:
SMILES,Yeast UUG start,MT1-MMP act inh,MT1-MMP act inh RFP,CSC inhib,PABP FP inh,Rce1 inh,HIV Env fusion,eIF4H inh,others
CCCCNc1c(-c2ccc(OC)c(SC(C)CC)c2)nc2cnccn12 (centres undefined),-21,-13,-4,·,·,·,-4,·,
CC(C)c1cn(C2OC(COC(=O)c3ccccc3)C(OC(=O)c3ccccc3)C2OC(=O)c2ccccc2)c(=O)[nH]c1=O (centres undefined),-15,-28,-23,-2,·,i,17,·,
O=C(NCCN1C(=O)S/C(=C\c2cccc(Cl)c2Cl)C1=O)C1=COCCO1,-15,2,-3,11,8,i,-9,-6,
COc1ccc(N2CCN(CC(O)COC(C)(C)C)CC2)cc1 (centres undefined),·,-4,4,-6,3,i,16,-9,
FC(F)(F)c1nnc2ccc(-n3ccnc3)nn12,-3,1,2,-19,5,i,-36,1,
Cc1cncc(NCc2ccc3c(c2)OCO3)n1,-11,0,0,·,·,·,-5,·,
CCCC(CCC)C(=O)NCCN1CCOCC1,-21,1,0,1,12,i,·,-11,
CC(C)CCN1CCN(Cc2nc3ccccc3s2)CC1CCO (centres undefined),-5,-2,2,26,2,i,-21,3,
O=C(NCc1ccccc1Cl)C1CCN(S(=O)(=O)N2CCCCCC2)CC1,3,18,-7,-11,-6,i,7,4,
O=C(NCCCN=C1NS(=O)(=O)c2ccccc21)c1ccc(F)cc1,-18,1,2,-12,-1,i,8,-17,
CC(C)c1nnc(SCC(=O)NCCC2=CCCCC2)n1N,-15,1,2,-3,5,i,-39,6,
CCC(=O)c1c[nH]c(C(=O)NCc2cccs2)c1,-28,2,0,-8,-2,i,-7,-9,
COc1ccc(C(C)=O)cc1CSc1nnc(Nc2ccccc2C)s1,·,0,-10,-3,-1,i,-2,8,
O=C(CCS(=O)(=O)c1ccccc1)Nc1nc2ccc(F)cc2s1,·,-6,-5,39,·,i,3,·,
CCc1cccc(N(CC(=O)NCc2ccc(F)cc2)C(=O)c2csnn2)c1,·,0,-2,-13,4,i,-18,-7,
CCCn1c(C)cc(C(=O)COc2ccc(C)nc2[N+](=O)[O-])c1C,10,3,-6,-2,8.6*,i,-5,69*,eIF4H inh retest=92*;PABP FP inh retest=75*
CCCN(C(=O)CCNC(=O)Cn1cnc2ccccc2c1=O)c1cccc(C)c1,-7,1,4,2,4,i,7,2,
CC1(C)Cc2c(cnn2-c2ccc(F)cc2)C(NC(=O)c2ccoc2)C1 (centres undefined),-10,-2,-2,-2,0,i,2,-8,
O=C(NC(CC1CCCCC1)C(=O)O)c1ccccc1 (centres undefined),-15,-2,-1,17,·,·,·,·,
CC(NC(=O)c1ccc(N(C)C)cc1)C(c1cccs1)N1CCN(C)CC1 (centres undefined),-14,-1,4,·,-9,i,·,5,
COc1cc(F)ccc1-c1cc(C(=O)Nc2ccc(NC(C)=O)cc2)[nH]n1,-10,6,5,·,·,·,-25,·,
COc1cc(C(=O)Nc2ccc(OCC(=O)N3CCOCC3)cc2C)cc(OC)c1OC,-8,2,0,0,-3,·,-10,-11,
COc1cc(C#N)ccc1OCC(=O)c1ccc2c(c1)OCCO2,-2,0,-1,-3,0,i,-36,10,
CC(C)C[C@@H](CN1C(=O)C(=O)NC[C@@H]1CC(C)C)NC(=O)Cc1ccccc1,-4,-1,4,·,·,·,-12,·,
CN1CCN(C(=O)c2cn(-c3ccccc3)nc2-c2cccs2)CC1,-3,-3,2,-5,3,i,-6,4,
COc1ccc(S(=O)(=O)N2Cc3ccccc3CC2C(=O)Nc2ccc3c(c2)OCO3)cc1 (centres undefined),-22,-9,-8,27,4,i,?,-1,
O=C(O)CCN=C1CCc2ccccc2N1,·,·,·,-13,-5,i,·,-1,
Fc1ccc(CCN2CCN=C2Nc2ccccc2)cc1,-5,-4,-1,-8,·,·,-21,·,
CCOC1C(=O)NC(=O)N1Cc1ccccc1 (centres undefined),-18,-2,3,·,-4,i,7,-2,
Cc1ccc(C(=O)NC2CCCC2)cc1S(=O)(=O)N1CCCCC1,-7,1,2,-5,-10,i,-19,-15,
Cc1ccc(C(=O)N2CCN(c3ccccc3)CC2)cc1NC(=O)c1ccco1,-8,4,1,-29,2,i,-14,-2,
COc1ccc2c(CC(=O)Nc3nc(C)cs3)coc2c1,·,-3,-5,7,-7,i,-7,-6,

# (continued)
SMILES,Yeast UUG start,MT1-MMP act inh,MT1-MMP act inh RFP,CSC inhib,PABP FP inh,Rce1 inh,HIV Env fusion,eIF4H inh,others
COc1ccc(CCNC(=O)COc2ccc3c(C)cc(=O)oc3c2)cc1,-14,-1,-2,-17,·,·,-4,·,
O=C(O)COc1ccccc1/C=N/NC(=O)CNC(=O)c1ccco1,·,-2,-2,18,4,i,1,-5,
C[N+]1(CCC(=O)c2ccccc2)CCCCC1,·,-4,-1,-4,4,i,-8,-2,
COc1cc(C(C(=O)Nc2c(C)cccc2C)N(C)C(=O)c2ccc(-n3cnnn3)cc2)ccc1O (centres undefined),-9,-3,2,7,4,i,7,0,
O=C(NCC1CCCO1)C(c1ccncc1)N(Cc1cccs1)C(=O)Cn1nnc(-c2ccc(F)cc2)n1 (centres undefined),·,-2,0,-9,16,i,-13,27,
CCOP(=O)(OCC)/C(=N/OC(=O)c1ccc(OC)cc1)C(N)=O,-5,-3,-1,-8,-4,i,-3,-8,
Cc1ccc(S(=O)(=O)N(C)CC(=O)N2CCCCCC2)cc1,-29,0,2,-1,-3,i,0,2,
CCc1ccccc1NS(=O)(=O)c1cccc2nsnc12,-20,3,-1,12,-3,i,1,0,
CCC(CC)C(=O)N(C)c1c(C)nc2c(OCc3ccc(Cl)cc3Cl)cccn12,-7,10,-8,·,·,·,48,·,
CCOC(=O)c1ccccc1NC(=O)C(C)Oc1ccccc1 (centres undefined),-15,-4,-4,2,0,i,4,5,
COc1ccc(-c2cc(C(F)(F)F)nc(-n3cc(Cl)cn3)n2)cc1,·,1,2,-1,-17,i,-56,-2,
CC(C)c1c(O)nc(SCc2ccccc2)[nH]c1=O,-2,-3,1,1,-7,i,·,4,
CCCN(C(=O)COC(=O)CNS(=O)(=O)c1ccc(NC(C)=O)cc1)C1CCS(=O)(=O)C1 (centres undefined),3,0,1,·,·,·,6,·,
CCN(CC)CCNC(=O)c1cn(-c2ccccc2)nc1-c1cccs1,-18,2,6,0,-1,i,-30,-1,
CCOC(=O)C1(Cc2ccc(OC)cc2)CCN(C(=O)c2cncs2)CC1,·,0,3,-4,1,i,-1,-8,
